# HTT aggregate – qHTS Multiplex Assay to Identify Dual Action Probes in a Cell Model of Huntington: Aggregate Formation (GFP); PC12 HttQ103-GFP aggregates, Acumen cytometry, 40 h; Potency, µM (top dose mostly 46.1 µM), inactives show at the highest dose activity change, negative = inhibition, usual class: inhibitors; 220,000 tested, 1.1% active; AID 1688, 2009; note: potency is the fitted concentration of half-maximal effect; % is set by controls: 0 for no effect and ±100 for the full control effect; nearly all actives have a fitted effect of over 60% in size
#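 PC12 cells with ecdysone-inducible HTT exon1 Q103-GFP, induced by 100 nM tebufenozide, given compounds in a concentration series. GFP aggregates (1–25 um, 6 SD above background) counted in lysates by laser-scanning cytometry, 488 nm excitation.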
# Epigenetic derep – Quantitative High-Throughput Screen for Regulators of Epigenetic Control | murine LDR cells, GFP reporter derepression, 30 h | 280,000 tested, 0.2% active | AID 1865, 2009 | Potency, µM (top dose mostly 53.9 µM), for the others: top-dose GFP activation, hits mostly activators; note: potency is the fitted concentration of half-maximal effect; % of control where 0% means no effect; nearly all actives have a fitted effect of over 60% in size
#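 Readout is the number of GFP-expressing murine LDR cells, counted by cytometry following washing. Cells were treated with compound for 30 h at 37 C; the stably integrated CMV-GFP locus is normally silent.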
# Lamin A splicing – qHTS Assay for Modulators of Lamin A Splicing | Potency, µM (series often up to 46.1 µM), without a hit: at the top dose ratio change, negative = inhibition, hits mostly inhibitors | AID 1487, 2009 | HeLa LMNA splicing GFP/RFP minigene ratio, 48 h | 200,000 tested, 0.01% active; active = well fitted inhibition curve with a large enough effect in the signal ratio, with a control signal flat, not every such curve was filed as active; inconclusive = small, poorly fitted or top-dose-only effect, or effect the other way, or a change in a side signal; the % refers to the signal ratio; note: potency is the fitted concentration of half-maximal effect; % is set by controls: 0 for no effect and ±100 for the full control effect
#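 S3 HeLa stable clones carrying a lamin A-EGFP splicing minigene plus DsRed2 were seeded at 600 cells/well in Opti-MEM with 2% FBS, pin-dosed and incubated 48 h at 37°C. Acumen cytometry (488 nm) gave the GFP/RFP total-intensity ratio.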
# CBFb-RUNX1 inh – qHTS Assay for Compounds Blocking the Interaction Between CBF-beta and RUNX1 for the Treatment of Acute Myeloid Leukemia. Runt-related transcription factor 1 (Homo sapiens) + Core-binding factor subunit beta …. Potency, µM (highest dose often 59.8 µM), without a hit: top-dose activity, negative = inhibition, most hits filed as inhibitors. AlphaScreen CBFb-His/RUNX1-biotin binding, biochemical. AID 1477, 2009. 230,000 tested, under 10 active; note: % of control where 0% means no effect
# Target sequence (Q01196 whole entry, looked up): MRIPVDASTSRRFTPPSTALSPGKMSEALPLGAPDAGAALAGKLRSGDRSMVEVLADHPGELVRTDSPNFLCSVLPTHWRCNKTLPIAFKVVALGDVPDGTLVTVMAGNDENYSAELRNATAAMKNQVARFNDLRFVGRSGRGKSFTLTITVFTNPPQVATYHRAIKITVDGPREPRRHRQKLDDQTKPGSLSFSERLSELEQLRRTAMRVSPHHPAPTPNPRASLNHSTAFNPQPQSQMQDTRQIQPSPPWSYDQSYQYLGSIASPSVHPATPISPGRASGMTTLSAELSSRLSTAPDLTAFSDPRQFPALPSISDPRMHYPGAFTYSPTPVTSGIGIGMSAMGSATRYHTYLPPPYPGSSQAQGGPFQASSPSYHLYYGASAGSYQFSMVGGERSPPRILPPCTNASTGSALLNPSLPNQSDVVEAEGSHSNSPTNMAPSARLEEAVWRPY
# Target sequence (Q13951 whole entry, looked up): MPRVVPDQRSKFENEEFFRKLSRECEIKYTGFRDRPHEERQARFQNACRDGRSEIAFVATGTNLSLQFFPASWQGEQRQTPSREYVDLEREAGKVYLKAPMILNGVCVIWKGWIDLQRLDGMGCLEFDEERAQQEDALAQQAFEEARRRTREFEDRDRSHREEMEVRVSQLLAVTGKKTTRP
#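 Interaction loss through any mechanism counts as activity. Pre-formed complex of His-CBF-beta and biotin-RUNX1 (30 nM apiece) is incubated with compound 15 min, then with 50 ng nickel and 50 ng streptavidin beads for 90 min before AlphaScreen detection.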
# Luc counter – Counterscreen for Luciferase (Kinase-Glo TM) Inhibition. Luciferin 4-monooxygenase (Photuris pensylvanica), Q27757. Kinase-Glo luciferase, ATP luminescence, 8 min. Potency, µM (top dose mostly 38.3 µM), without a hit: at the highest dose activity change, negative = inhibition, most hits filed as inhibitors. 200,000 tested, 0.28% active; note: potency is the fitted concentration of half-maximal effect; % is set by controls: 0 for no effect and ±100 for the full control effect; nearly all actives have a fitted effect of over 60% in size
#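 Recombinant Kinase-Glo luciferase, 10 uM ATP (linear range), luciferin; imidazole pH 7.2 / KCl / MgCl2 / Tween / BSA buffer; 8 min RT; luminescence.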
# IMPase Li cell – qHTS Assay for Identifying the Cell-Membrane Permeable IMPase Inhibitors: Potentiation with Lithium; CHO-M1 cells, IP1 TR-FRET (IP-One), carbachol + lithium; Potency, µM (titrated, usually from 59.4 µM), for inactives: at the top dose activity, negative = IMPase inhibition, usual class: inhibitors; 210,000 tested, 0.35% active; AID 1457, 2008;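 note: IP1 builds up when IMPase is blocked and the TR-FRET signal falls; potency is the fitted concentration of half-maximal effect; plate controls were basal vehicle for no effect and high inhibitor control for full effect; nearly all actives have a fitted effect of over 50% in size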
#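 Concentration–response in CHO-M1 cells, lithium-potentiated; 30 min at 37C. IP1 detected by competitive TR-FRET after 10 min lysis at RT. Hill-fitted AC50.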
# Active calls of the source: *; u = inconclusive; x = no result given; & = joins results of further samples; [ ] = another dose, or the depositor's remark. Unless noted, calls come from the whole dose curve; as a rule, active = well fitted curve in the direction sought with a large enough effect; inconclusive = small, poorly fitted or top-dose-only effect, or another doubt; inactive = no such curve, though single readings can be large; an effect the other way counts as inactive or inconclusive. This is a subset; rates above refer to the full screens.
SMILES,HTT aggregate,Epigenetic derep,Lamin A splicing,CBFb-RUNX1 inh,Luc counter,IMPase Li cell
COc1cc(OC)cc(C(=O)N2CCC(n3c(C)nc4cc(F)ccc43)CC2)c1,-5.7%,-0.8%,-5.4%,-8.8%,2.4%,9.0%[38.3 µM]
CN(C)C=NC(=O)c1ccc(N2CCN(c3ncc(C(F)(F)F)cc3Cl)CC2)cc1,-7.2%,-2.3%,12.8%,-2.6%,-3.5%,u
O=C(c1cc2nc(-c3ccco3)cc(C(F)(F)F)n2n1)N1CCN(c2ccc(F)cc2)CC1,-37.0%,0.9%,-3.7%,4.3%,1.5%,21.1%[38.3 µM]
CCOc1ccc(/C=N/NC(=O)Cc2csc(Nc3cccc(C(F)(F)F)c3)n2)cc1,u,11.9%,u,-17.1%,-0.7%,40.1%[activator][38.3 µM]
CCCCC(=O)N(c1ccc(C(=O)O)cc1)c1nc(-c2ccc(Cl)cc2)c(CC)s1,-17.3%[9.22 µM],-1.9%[10.1 µM],x,3.5%,0.1%,9.6%
Cc1ccc2[nH]c(=O)c(-c3noc(C(C)C)n3)cc2c1,6.8%,0.8%,7.1%,0.1%,-1.2%,6.0%[38.3 µM]
CC(=O)c1ccc(N2CCN(C(=O)c3cc(-c4cccnc4)nc4ccc(Br)cc34)CC2)cc1,7.6%[9.22 µM],4.6%,u,0.1%,-0.6%,-8.4%
COc1ccc(NC(=O)c2nc[nH]c2C(=O)N(C)Cc2ccccc2)cc1,9.7%[9.22 µM],-4.4%,x,-0.9%,x,x
Cc1cccc(S(=O)(=O)N(CC(=O)Nc2ccccc2C)Cc2ccco2)c1,-5.9%,-0.8%,-11.0%,-2.6%,-1.8%,24.3%[38.3 µM]
CCOc1ccc(C(c2c(NC(=O)c3ccccc3)sc(C)c2C)N2CCN(C)CC2)cc1 (stereo not drawn),-24.0%,0.0%,u,-14.2%,0.6%,17.1%
Cc1nn(C(C)(C)C)c(OC(=O)c2ccc3c(c2)OCO3)c1Sc1ccccc1,8.8%,0.1%,-0.9%,15.3%,-3.5%,32.3%[activator][38.3 µM]
CCCSc1nc(SCC(=O)NCc2ccccc2)c2c3c(sc2n1)COC(C)(CC)C3 (stereo not drawn),-2.2%,-1.1%,4.8%,0.8%,-0.5%,-3.2%[38.3 µM]
OC1CCN(c2c3c(nc4cc(-c5cccc(F)c5)nn24)CCCC3)CC1,u,0.0%,0.0%,9.3%,-0.9%,43.9%[activator][38.3 µM]
CCCCCn1c(N)c(-c2nc3ccccc3s2)c2c([N+](=O)[O-])nn(CC)c(=O)c21,31.0%,-0.7%,7.6%,1.2%,-2.7%,4.9%[38.3 µM]
CCC1(C)Cc2ccccc2-c2c1c(=O)n(-c1ccc(C)cc1)c1nnnn21 (stereo not drawn),9.6%,0.0%,1.5%,11.0%,4.3%,28.1%[38.3 µM]

# Complete entries, quoted from the list:
# OC1CCN(c2c3c(nc4cc(-c5cccc(F)c5)nn24)CCCC3)CC1 is entered as HTT aggregate: u; Epigenetic derep: 0.0%; Lamin A splicing: 0.0%; CBFb-RUNX1 inh: 9.3%; Luc counter: -0.9%; IMPase Li cell: 43.9%[activator][38.3 µM]
# COc1cc(OC)cc(C(=O)N2CCC(n3c(C)nc4cc(F)ccc43)CC2)c1 is entered as HTT aggregate: -5.7%; Epigenetic derep: -0.8%; Lamin A splicing: -5.4%; CBFb-RUNX1 inh: -8.8%; Luc counter: 2.4%; IMPase Li cell: 9.0%[38.3 µM]

# The list goes on.
SMILES,HTT aggregate,Epigenetic derep,Lamin A splicing,CBFb-RUNX1 inh,Luc counter,IMPase Li cell
O=C(CSc1ncn[nH]1)N1N=C2/C(=C/c3ccccc3)CCCC2C1c1ccccc1 (stereo not drawn),10.2%,-0.9%,u,-26.4%,x,x
O=C(Nc1nc2c(s1)CCc1ccccc1-2)c1cccs1,u,-2.3%,u,22.0%,0.7%,23.2%[38.3 µM]
CCOC(=O)c1cc(C#N)c(N2CCNCC2)nc1C(F)(F)F,36.4%[9.22 µM],11.7%,x,-5.6%,x,x
CC1(C)CC(=O)C2=C(C1)OC(N)=C(C#N)C2c1cn(-c2ccccc2)nc1-c1ccc(F)cc1 (stereo not drawn),-11.5%,-1.0%,u,-8.5%,0.0%,2.4%
C=CCn1c(=S)[nH]c2scc(-c3ccco3)c2c1=O,6.6%[9.22 µM],-1.0%,x,u,x,x
Cc1nn(-c2ccc(Cl)c(Cl)c2Cl)c(=O)c2ccccc12,-32.8%,2.2%,-29.5%,3.6%,-2.6%,30.9%[38.3 µM]
COc1ccc(CC(=O)c2ccccc2C(=O)O)cc1,-1.7%,0.7%,2.1%,11.3%,-7.1%,-12.7%[38.3 µM]
O=C(/C=C/c1cn(-c2ccccc2)nc1-c1cccnc1)N1CCCCC1,13.4%,-1.2%,-1.3%[46 µM],-1.4%,-0.8%,11.3%
O=c1[nH]n(CC2COC3(CCCCC3)O2)c(=O)c2ccccc12 (stereo not drawn),19.4%,-1.0%,u,1.9%,8.2%,5.2%[38.3 µM]
CC(C)C[C@H](NC(=O)OC(C)(C)C)C(=O)N/N=C/C1=Cc2ccccc2OC1C (stereo partly drawn),u,0.0%,-19.9%,9.1%,17.4%,36.4%[activator][38.3 µM]
Cc1ccc(C)c(N(CC(=O)NC2CCCC2)C(=O)c2oc(C(C)(C)C)cc2C)c1,25.1µM*,-3.4%,u,18.0%,0.2%,11.5%
CC(Sc1nc(N2CCCCC2)c2c(c1C#N)CCCC2)C(=O)O (stereo not drawn),3.4%,0.8%,14.7%,3.4%,0.5%,-24.5%[38.3 µM]
Cc1cc2nc(CN(C)Cc3c(C(=O)N(C)C)nc4ccc(Cl)cn34)[nH]c2cc1C,4.7%[9.22 µM],0.8%,-16.4%[46 µM],8.5%,2.9%,4.6%
CC(C)(C)n1nnnc1C(c1ccccn1)N(Cc1ccccc1)Cc1ccc(Cl)cc1 (stereo not drawn),u,0.2%,u,5.8%,1.6%,10.2%[38.3 µM]
CCN(CC)CCCNC(=O)c1sc2ncn(CC(=O)Nc3ccc(C)c(Cl)c3)c(=O)c2c1C,u,0.9%,x,0.6%,-2.5%,9.6%
CCCCN(CCCC)C1=Nc2ccccc2N/C1=C(/C#N)C(=O)OCC,u,-0.1%,u,-2.3%,-0.3%,3.9%[38.3 µM]
COc1ccc2c(C=Nc3c(C)n(C)n(-c4ccccc4)c3=O)c(O)n(Cc3ccco3)c(=O)c2c1,-2.0%&7.4%,u,u,2.2%&-3.3%,-0.4%&-2.1%,25.5%&10.5%[38.3 µM]
CCOC(=O)c1sc(NC(=O)c2ccc(S(=O)(=O)N(CC)CC)cc2)nc1C,9.4%[9.22 µM],u,0.8%,-0.6%,-0.2%,-158.4%[38.3 µM]
O=C(NC1CCCCCCC1)c1ccccc1-c1ccccc1,-6.6%,0.1%,u,10.1%,2.6%,13.1%
Nc1c(S(=O)(=O)c2ccccc2)c2nc3ccccc3nc2n1/N=C/c1cccc(O)c1,-27.8%,-7.0%,u,5.9%,x,x
O=C1Oc2ccccc2C(=O)/C1=C/c1ccccc1O,-3.2%,4.7%,x,-1.1%,0.0%,u
CN1C(=O)NC(c2ccccc2)C2=C1CN(c1ccc3ccccc3c1)C2=O (stereo not drawn),-4.7%,11.8%,-2.4%,-0.2%,-0.2%,u
Cc1cc(C)c2nc(C(F)(F)F)nc(N3CCN(C(=O)c4ccco4)CC3)c2c1,u,-0.7%,-0.2%,1.0%,-4.0%,3.7%[38.3 µM]
Cc1cc(C)c(C#N)c(SCCS(=O)(=O)c2ccc(C(C)(C)C)cc2)n1,u,-1.0%,-10.0%,5.3%,-0.3%,42.4%[activator][38.3 µM]
O=C(O)CCCCCCCCCC(=O)c1cccs1,2.9%,1.8%,5.8%,1.2%,-1.2%,7.1%[38.3 µM]
O=C(O)CN1C(=O)SC(Nc2ccc(Cl)cc2)C1=O (stereo not drawn),1.1%[9.22 µM],1.0%,u,-0.9%,0.8%,6.0%[38.3 µM]
CN1C(=O)NC(c2ccccc2)C2=C1CN(c1cccc(C(F)(F)F)c1)C2=O (stereo not drawn),8.1%,-4.3%,26.7%,4.5%,0.1%,2.6%[38.3 µM]
CCN(CC)C(=O)CSc1nc2cc(OC)c(OC)cc2c(=O)n1Cc1ccc(Cl)cc1,0.0%,1.8%,9.8%,3.9%,x,x
CCN(Cc1ccccc1)C(c1cccs1)c1nnnn1C1CCCCC1 (stereo not drawn),u,-1.0%,u,17.6%,-3.9%,48.1%[activator][38.3 µM]
CCC(C)(C(=O)NC1CCCCC1)N(C(=O)c1ccccn1)c1ccccc1 (stereo not drawn),-0.2%[9.22 µM],-3.4%,13.6%,7.3%,7.3%,5.4%[38.3 µM]
COc1ccccc1S(=O)(=O)Cc1ccc(C(=O)N2CCN(c3cccc(Cl)c3)CC2)o1,u,5.4%,u,3.6%,-5.0%,24.7%[38.3 µM]
Cc1cccc(S(=O)(=O)NCCC(=O)OC(C)C(=O)NC(=O)NC2CCCCC2)c1 (stereo not drawn),6.5%,4.0%,3.9%,-1.2%,-0.3%,7.4%[38.3 µM]
NNC(=O)CNC(c1ccccc1)c1cc(Br)ccc1NC(=O)c1ccc(Br)cc1 (stereo not drawn),4.7%,1.5%,-12.9%,-13.4%,-1.8%,-13.1%
O=C(O)c1cccc(NS(=O)(=O)c2cccc3cccnc23)c1,0.5%,1.4%,2.1%,-3.4%,-0.4%,4.8%[38.3 µM]
Cc1ccc(-c2nnc(N3CCCCC3)c3ccccc23)cc1,9.6%[9.22 µM],0.1%,x,-2.6%,x,x
CC(C1CC1)N(Cc1ccccc1)C(=S)Nc1ccccc1Cl (stereo not drawn),-23.6%,-1.2%,x,17.9%,-0.9%,-13.8%
N#Cc1cc(Br)ccc1N=C1CCCN1c1ccccc1,6.4%,-3.0%,u,-0.4%,2.3%,12.7%
Nc1c(-c2ccccc2)cnn1C1CCS(=O)(=O)C1 (stereo not drawn),5.4%[9.22 µM],-0.3%,7.4%,2.6%,2.9%,12.2%[38.3 µM]
CC(Nc1cc(N2CCN(C(=O)C(C)(C)C)CC2)ccc1[N+](=O)[O-])c1ccccc1 (stereo not drawn),u,2.4%,u,u,-4.8%,15.7%[38.3 µM]
Cn1c(=O)c2c(SCC(=O)N3CCCc4ccccc43)nc(CC(C)(C)C)nc2n(C)c1=O,0.3%,0.1%,-8.1%,-1.4%,-0.6%,21.7%

# High-throughput results: PubChem, National Center for Advancing Translational Sciences (NCATS)
